CtBP-E1A blk – inhibitors of CtBP/E1A interaction; AlphaScreen GST-E1A/His-CtBP binding, 1536-well; hits give low values; control for the full effect not named in the record; activity change, % (no concentration beside the values); 340,000 compounds, 0.49% hits; in the data active means activity change below about -65%; inconclusive means about -30% to -65%; inactive means above about -30%; note: % is set by controls: 0 for no effect and ±100 for the full control effect
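AlphaScreen with 125 nM GST-E1A and 125 nM His-CtBP (5X stocks) in Tris pH 8.0, 300 mM NaCl, BSA, Tween 20, TCEP. Compounds preincubated 2 h at 37 deg C, then glutathione donor/nickel acceptor beads added for 1 h at 37 deg C in dark.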
gsp antagonist – antagonists of gsp mutant (McCune-Albright syndrome). gsp-mutant cells, cAMP HTRF, 30 min; control for the full effect not named in the record. Potency, µM (series often up to 76.9 µM), inactives show at the top dose activity change, negative = inhibition, most hits filed as inhibitors. 340,000 compounds, 0.4% hits. AID 624288; active = falling curve of any shape with a large fitted effect; inconclusive = falling curve, mostly with a smaller effect; inactive = flat or rising curve; cell line not stated here;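 note: intracellular cAMP measured with PDE inhibitor Ro 20-1724 present during compound exposure; potency is the fitted concentration of half-maximal effect; % is set by controls: 0 for no effect and ±100 for the full control effect; nearly all actives have a fitted effect of over 65% in size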
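G418-selected cells were plated in DMEM/10% FBS for 16-24 h at 37C, then treated with compounds plus the PDE inhibitor […] (300 uM solution added) for 30 min at 37C. Intracellular cAMP was measured by HTRF after 30 min lysis at room temperature.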
TRPV1 potentiator – enhances activation of the human vanilloid receptor TRPV1 | Q8NER1 | AID 540277 | potentiation, % at 8.33 µM | TRPV1-expressing cells, Fluo-8 calcium influx, capsaicin EC20 potentiation; host cell line not named in the record; control for the full effect not named in the record | 320,000 compounds, 0.02% hits; active means potentiation above 80%; inconclusive means 30% to 80%; inactive means below 30%; note: 0% is about no effect
Target sequence (Q8NER1 whole entry, looked up): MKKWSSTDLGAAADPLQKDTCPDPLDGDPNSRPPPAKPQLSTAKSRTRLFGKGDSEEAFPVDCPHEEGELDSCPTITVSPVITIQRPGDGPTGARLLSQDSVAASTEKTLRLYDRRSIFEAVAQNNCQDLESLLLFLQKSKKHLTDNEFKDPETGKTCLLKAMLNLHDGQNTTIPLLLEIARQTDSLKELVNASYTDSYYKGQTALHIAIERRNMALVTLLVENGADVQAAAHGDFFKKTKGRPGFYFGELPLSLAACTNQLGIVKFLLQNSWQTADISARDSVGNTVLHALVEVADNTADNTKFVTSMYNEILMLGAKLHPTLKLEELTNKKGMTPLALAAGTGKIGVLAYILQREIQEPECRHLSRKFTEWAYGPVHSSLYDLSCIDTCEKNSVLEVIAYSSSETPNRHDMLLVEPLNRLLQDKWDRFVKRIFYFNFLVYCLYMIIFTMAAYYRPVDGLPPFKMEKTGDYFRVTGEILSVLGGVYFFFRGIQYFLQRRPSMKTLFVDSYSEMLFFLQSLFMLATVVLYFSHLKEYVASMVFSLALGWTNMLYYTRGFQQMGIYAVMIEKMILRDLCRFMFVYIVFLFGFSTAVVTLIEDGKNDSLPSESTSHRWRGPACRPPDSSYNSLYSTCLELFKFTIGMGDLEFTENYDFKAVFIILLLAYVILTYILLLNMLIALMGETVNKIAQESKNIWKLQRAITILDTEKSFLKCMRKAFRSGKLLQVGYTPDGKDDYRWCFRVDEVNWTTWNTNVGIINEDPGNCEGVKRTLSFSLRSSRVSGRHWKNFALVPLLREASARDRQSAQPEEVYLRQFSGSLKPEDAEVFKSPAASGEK
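Cells expressing TRPV1 were dye-loaded with Fluo-8 and read kinetically: 10 s baseline, 3 min after compound (agonist portion), then 2 min after EC20 capsaicin (allosteric enhancer portion). Calcium-bound dye fluorescence at 480/520 nm.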
gsp agonist – activates gsp, the McCune-Albright syndrome mutation | gsp mutant cells, cAMP HTRF, 30 min; control for the full effect not named in the record | Potency, µM (doses to about 76.9 µM), without a hit: at the highest dose activation (cAMP increase), actives largely listed as activators | 340,000 compounds, 0.13% hits | AID 624287; active = well fitted activation curve with a large enough effect; inconclusive = small, poorly fitted or top-dose-only effect, or another doubt; inactive = no such curve, though single readings can be large or run the other way; cell line not stated here;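 note: phosphodiesterase inhibitor Ro 20-1724 added with compounds to block cAMP breakdown; potency is the fitted concentration of half-maximal effect; nearly all actives have a fitted effect of over 60% in size; about a fifth of the inactives were tested at one dose only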
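Cells in DMEM/10% FBS with G418 were pretreated with compounds in DMSO plus […] (300 uM stock) for 30 min at 37C. cAMP was measured by HTRF (cAMP-d2 plus anti-cAMP antibody-K) after 30 min at room temperature.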
Menin MLL FP FL – inhibitors of human menin-MLL interaction, wild-type MLL peptide; Fluorescence polarization, fluorescein-MLL peptide displacement from menin; AID 1766; 290,000 tested, under 10 active; FP activity change, % at 61.4 µM; inconclusive = falling polarisation curve, or a change in total fluorescence; inactive = total fluorescence flat and polarisation flat or rising; no compound was filed as active; the % refers to the polarisation; negative = inhibition;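 note: % of control where 0% means no effect; inhibitors lower the polarisation; unlabelled MLL peptide was the positive control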
ClpP mod – qHTS Assay for Activators of ClpP; ATP-dependent Clp protease proteolytic subunit (Bacillus subtilis (strain 168)), P80244; 340,000 compounds, 1.9% hits; Potency, µM (highest dose often 57.5 µM), without a hit: top-dose activity change, negative = active; purified B. subtilis ClpP, FRET peptide cleavage, 20 min; active = well fitted falling curve with a large enough effect; inconclusive = small, poorly fitted or top-dose-only effect; inactive = no such curve, though single readings can be large or run the other way; note: potency is the fitted concentration of half-maximal effect; the source files actives as falling curves though it sought activators and does not explain the sign; nearly all actives have a fitted effect of over 65% in size; many hits overshoot -100%
Target sequence (P80244 whole entry, looked up): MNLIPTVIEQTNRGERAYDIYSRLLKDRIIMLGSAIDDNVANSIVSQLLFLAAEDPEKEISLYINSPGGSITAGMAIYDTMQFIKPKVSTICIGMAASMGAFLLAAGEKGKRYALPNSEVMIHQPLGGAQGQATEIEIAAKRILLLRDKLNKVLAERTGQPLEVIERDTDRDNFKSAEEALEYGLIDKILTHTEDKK
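Purified B. subtilis ClpP, 10 microg/mL final in Tris/HCl pH8 with KCl, BSA, glycerol and Tween-20, cleaved an Abz/nitrotyrosine-quenched decapeptide. Fluorescence (ex 320, em 430) was read at 0 and 20 min at room temperature. Delta was normalized to 5.8 microM ADEP and DMSO/no-enzyme controls.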
Sfp PPTase inh – blocks B. subtilis Sfp PPTase activity. 310,000 compounds, 3.5% hits. Biochemical Sfp PPTase activity, qHTS. Potency, µM, for inactives: max response, negative = inhibition, hits mostly inhibitors; active = well fitted inhibition curve with a large enough effect; inconclusive = small, poorly fitted or top-dose-only effect, or another doubt; inactive = no such curve, though single readings can be large or run the other way;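 note: the enzyme is Sfp with the accession as filed and its product quenches rhodamine fluorescence; potency is the fitted concentration of half-maximal effect; 0% = enzyme reaction without inhibitor and -100% = no enzyme wells; top concentration of the series not given in the record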
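Fluorescence-quenching assay with 15 nM Sfp, 5 uM rhodamine-CoA and 12.5 uM BHQ-2-labelled ybbR peptide in pH 7.6 Hepes/MgCl2 buffer. Enzyme was pre-incubated with compound for 15 min at room temperature. Rate was taken from the 30-min fluorescence change (525/598 nm).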
* hit, by the source's call; ? = inconclusive; . = not tested or not shown; & = joins results of further samples; [ ] = another dose, or the depositor's remark.

SMILES	CtBP-E1A blk	gsp antagonist	TRPV1 potentiator	gsp agonist	Menin MLL FP FL	ClpP mod	Sfp PPTase inh
CN(C)CCCN(C(=O)/C=C/c1cccs1)c1nc2ccc(F)cc2s1	3	0%	23	-2%[15.4 µM]	4.4	.	-27%
CCOC(=O)N1CCN(c2c(Nc3ccc4c(c3)OCCO4)c(=O)c2=O)CC1	0	-16%	-3	-26%	-3.7	2.4%	11%
O=C(Nc1c2c(nn1-c1cccc(Cl)c1)CS(=O)(=O)C2)c1cccs1	-8	-1%	0	7%	-4.0	-4.7%	10%
CN(C)S(=O)(=O)N1CCC(Oc2ccc(C(=O)N3CCCCCC3)cc2)CC1	-5	.	.	-15%	.	-1.1%	.
Cc1noc(C)c1CSCC(=O)OCc1nnc(-c2ccc([N+](=O)[O-])cc2)o1	-4	-14%	.	3%[15.4 µM]	.	-0.7%	.
COc1ccc2c(c1)c(CC(=O)Nc1nnc(C3CC3)s1)c(C)n2C(=O)c1ccc(Cl)cc1	3	?	1	6%[15.4 µM]	3.1	.	?
O=C(c1ccc(CS(=O)(=O)c2ccc(Br)cc2)o1)N1CCN(c2ncccn2)CC1	5	-1%	.	-5%	0.2	-8.4%	21%
CC1CCc2c(sc(NC(=O)Cn3cnc([N+](=O)[O-])n3)c2C(N)=O)C1 (stereo not drawn)	.	6%	8	15%	-0.8	-1.7%	9%
C[C@@H]1CCCCCCCCC(=O)OCCN[C@H](C)CCCCCCCCC(=O)OCCN[C@H](C)CCCCCCCCC(=O)OCCN1	-3	-15%	.	.	.	-0.2%	.
CCC1Oc2ccc(C)cc2N(CC(=O)N(Cc2ccc3c(c2)OCO3)CC2CCCO2)C1=O (stereo not drawn)	-9	-16%	-15	-8%	1.9	-1.2%	-10%
COc1cccc(CCN2CCC(CNS(=O)(=O)c3cc(-c4cc(C)no4)ccc3OC)CC2)c1	-12	5%	4	1%	1.9	-4.0%	6%
COc1ccc(C(CNC(=O)Cn2c(=O)oc3ccccc32)N(C)C)cc1 (stereo not drawn)	1	6%	21	-25%	.	1.1%	20µM*
CCO[C@H]1OC(C(=O)Nc2ccccc2)=C[C@@H](c2cn(C(C)=O)c3ccccc23)[C@@H]1CCCO	-28	-9%	-15	.	-6.4	-1.3%	-10%
O=C(N1CCCCC1)N1CCN(C(=O)N2CCCCC2)CC1	6	1%	-12	10%[15.4 µM]	-0.9	.	22%
CCCc1nc2c(sc3nc4c(cc32)COC(C)(C)C4)c(=O)n1CCN(C)C	-1	-3%	-11	-20%	1.4	-0.4%	11%
COc1ccc(-c2cc(-c3nnc(COC(=O)c4ccncc4)o3)c3ccccc3n2)cc1OC	-1	-1%	-44	7%[15.4 µM]	-5.0	.	5%
CSc1cccc(NC(=O)CNC(=O)c2ccc3c(c2)OCO3)c1	1	5%	5	-4%	.	-5.7%	.
NC(=O)CCN1CCC(c2nc3ccccc3s2)CC1	-14	9%	-14	7%[15.4 µM]	1.4	.	6%
CCn1c(CNC(=O)Cc2ccc(OC)cc2)nnc1SCC(=O)c1ccc(Br)cc1	3	?	-4	-25%	-0.8	3.2%	1%
O=C(Nc1nc(N2C(=O)c3ccccc3C2=O)n(-c2ccccc2)n1)c1ccc(F)cc1	?	-5%	9	?	4.6	-2.7%	?
COc1cc(NC(=O)c2ccc(CNc3c(N4CCCC4)c(=O)c3=O)cc2)cc(OC)c1OC	-4	8%	1	-13%[15.4 µM]	4.4	.	-30%
Cc1ccc(C(=O)NC(C)CCc2ccccc2)cc1[N+](=O)[O-] (stereo not drawn)	-1	-6%	-28	-16%	1.6	3.3%	11%
CC(C)C[C@@]12C(=O)N(c3ccc(Br)cc3)C(=O)N1[C@H](c1ccc(Br)cc1)[C@@H]1C(=O)N(C(C)(C)C)C(=O)[C@@H]12	-9	-5%	3	-7%	3.6	-5.3%	6%
CC(=O)N1CCC(N(C(=O)Nc2ccc(F)cc2)C2CCCC2)CC1	-6	-1%	7	?	1.1	-3.0%	-3%
CC(C)(C)c1cc(Br)ccc1OCC(=O)Nc1ncn[nH]1	-10	-4%	6	11%	3.3	0.7%	21%
CCOc1ccc(NC(=O)Nc2ccc3c(c2)nc(C)n3C)cc1	5	9%	-5	?	-1.9	-1.9%	13%
CC(Oc1ccc(F)cc1Br)c1nc2ccccc2c(=O)[nH]1 (stereo not drawn)	-3	-5%	22	?	4.0	.	12%
Cc1ccc(C)c(C(=O)COc2ccccc2[N+](=O)[O-])c1	1	-3%	-7	3%	7.0	-1.4%	?
COC(=O)c1ccc2nc(Nc3nc4ccc(F)cc4s3)sc2c1	20	-7%	5	-2%	3.0	18µM*	9%
Cc1ccc(N2CCN(C3=NC(=O)/C(=C\c4cn[nH]c4-c4ccccc4)S3)CC2)cc1	-16	?	1	-3%[15.4 µM]	-1.1	1.3%	-4%
CCCc1c(C(=O)N/N=C(\C)c2cc(C)sc2C)nnn1-c1nonc1N	-10	.	.	5%	.	2.2%	.
O=[N+]([O-])c1cccc(COc2ccc(CN3CCOCC3)cc2)c1	-10	9%	.	.	.	-0.5%	.
CC(C)C(c1nnnn1C1CCCC1)N1CCCc2ccccc21 (stereo not drawn)	-1	-10%	-9	-10%	-2.4	-1.1%	1%
CN1CCN(/N=C/c2ccc(N(c3ccccc3)c3ccccc3)cc2)CC1	-1	1%	-11	-1%[15.4 µM]	-1.0	-0.5%	-23%
O=C(CN1CCN(c2ccc(C(F)(F)F)cn2)CC1)NCc1ccc2c(c1)OCO2	0	-7%	-1	0%[15.4 µM]	-2.0	-16%	16%
CSCCC(NC(=O)c1ccco1)C(=O)NCC(C)(C)N1CCOCC1 (stereo not drawn)	.	15%	11	-14%	.	0.9%	.
COc1ccc(C(=O)Nc2ncccc2C)cc1S(=O)(=O)N1CCOCC1	10	8%	2	?	.	1.1%	.
CC(C)c1ccc(NC(=O)C2CCN(S(=O)(=O)c3ccc4c(c3)C(C)(C)C(=O)N4C)CC2)cc1	5	-15%	-17	-88%	-1.2	-0.7%	21%
CCOC(=O)c1cc(C(=O)NC(C)c2ccccc2)c(C)[nH]c1=O (stereo not drawn)	.	3%	2	-6%	-0.3	-9.8%	21%
CCCc1sc(C(=O)Nc2nnc(C3CC3)s2)cc1CC	1	-2%	6	7%[15.4 µM]	.	.	.
CCOC(=O)c1c(-c2cccc([N+](=O)[O-])c2)csc1NC(=O)C1CC1	-10	-13%	-7	-4%	0.3	-3.3%	-6%
Cn1c(NCc2ccco2)nc2ccccc21	-3	11%	1	-49%[inhibitor]	0.2	-1.1%	20%
CC(CNC(=O)CCCn1c(=O)c2cccn2c2cccnc21)c1ccccc1 (stereo not drawn)	0	.	.	-3%	.	3.9%&-6.6%	.
CCC1CCCCN1CCCNC(=O)Cn1cc2c(n1)-c1c(oc(C(=O)N3CCCC3)c1C)CC2 (stereo not drawn)	-5	12%	1	7%	.	0.9%	-17%
CC(NC(=O)Nc1ccccc1)C(c1cccs1)N1CCN(C)CC1 (stereo not drawn)	-1	7%	6	-25%	-1.9	2.1%	21%
Cc1cc(C)n(C(=O)CNC(=O)c2cccc(Cl)c2)n1	-18	5%	3	?	0.1	.	19%
COC(=O)c1cccc(-n2nnnc2SCC(=O)Nc2nc3c(s2)CCCC3)c1	2	-6%	?	8%	4.4	0.5%	7%
Cc1ccc(S(=O)(=O)N(C)CC(=O)NCc2ccncc2)cc1	6	8%	6	-13%	5.5	-0.5%	22%
CC[C@H](C)[C@@H](NC(=O)O[C@@H]1C(=O)c2cc(Br)ccc2O[C@H]1c1ccc2c(c1)OCO2)C(=O)OC	.	.	22	.	3.3&6.4	.	13%&4%
Cc1cc(C)n(C(=O)c2cc3ccccc3c(=O)o2)n1	0	7%	6	-2%	1.4	-5.1%	4%
COc1ccc(NC(=O)COc2ccc(CNCCCN3CCOCC3)cc2OC)cc1	0	14%	13	-15%	-2.8	0.1%	-10%
O=C(CN1C(=O)NC(c2ccccc2)(c2ccccc2)C1=O)Nc1cccnc1Cl	8	-1%	0	-11%	0.8	.	12%
O=C(CSc1nnc(-c2cccnc2)o1)N1CCCCC1	-3	14%	3	8%	-0.5	.	8%
O=C(NCCNC(=O)c1cc(OCC(F)(F)F)ccc1OCC(F)(F)F)Nc1cccc(C(F)(F)F)c1	8	-10%	-15	19%	1.2	0.5%	?
Cc1cccc(CN2CCC(CNC(=O)CSc3cc(=O)n(C)c4cc(Cl)ccc34)CC2)c1	6	3%	-10	?	-0.1	.	-4%
Cc1ccc(OCC(=O)Nc2ccccc2C(=O)N2CCCCC2)cc1	6	9%	11	-5%	.	-0.6%	13%
COc1ccc(C(=O)Nn2c(CCC(=O)O)ccc2-c2ccc(C)cc2)cc1OC	1	1%	27	0%[15.4 µM]	-3.5	.	3%
COc1ccc(Cl)cc1NC(=O)CSc1nc2[nH]ncc2c(=O)[nH]1	-2	.	.	-4%	.	-2.3%	.
CN(CC(=O)NC(=O)NCc1ccccc1)Cc1cccc(Cl)c1Cl	13	2%	-37	-53%[inhibitor]	.	0.4%	-6%
COc1ccc(NC(=O)CSCC(=O)NCCc2ccccn2)cc1	8	1%	7	19%[15.4 µM]	4.4	0.7%	-1%

(listing goes on)
SMILES	CtBP-E1A blk	gsp antagonist	TRPV1 potentiator	gsp agonist	Menin MLL FP FL	ClpP mod	Sfp PPTase inh
Cc1ccccc1NC(=O)COC(=O)c1ccc(S(=O)(=O)N2CCCCCC2)cc1	11	12%	15	-20%	.	-3.7%	.
O=C(O)CC1(CC(=O)Nc2ccc3c(c2)C(=O)OC3)CCCCC1	.	-5%	-3	2%	-0.3	-3.4%	6%
COc1ccc(CNC(=O)c2ccc(CS(=O)(=O)c3ccccc3C)o2)cc1	0	0%	-24	26%	.	-1.7%	11%
CCOc1ccc(N(CC(=O)Nc2c(C)n(C)n(-c3ccccc3)c2=O)S(=O)(=O)c2ccc(F)cc2)cc1	2	0%	2	-1%	.	1.4%	19%
COC(=O)Cn1ncc2c(C)n(Cc3ccccc3)c(C)c2c1=O	-2	-4%	29	27%	-0.3	-19%	-30%

High-throughput results as filed in PubChem BioAssay.
